PABP FP inh: blocks human PABP binding to poly(A) RNA. P11940. fluorescence polarization. inhibition, % at 35 µM. 1% of 290,000 active. AID 2014;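 active = 50% or more with normal probe brightness, or confirmed in later tests; inconclusive = above 50% with abnormal brightness, or retests that disagree; inactive = below 50% or failed in later tests; about a fifth of its hits are not listed in these tables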;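 also: calls also rest on retests at 20 µM and on dose response follow-up; controls were probe without protein and protein plus probe with vehicle; some compounds called inactive have numbers as strong as hits; many hits fall short of the cut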
Target sequence (P11940 whole entry, looked up): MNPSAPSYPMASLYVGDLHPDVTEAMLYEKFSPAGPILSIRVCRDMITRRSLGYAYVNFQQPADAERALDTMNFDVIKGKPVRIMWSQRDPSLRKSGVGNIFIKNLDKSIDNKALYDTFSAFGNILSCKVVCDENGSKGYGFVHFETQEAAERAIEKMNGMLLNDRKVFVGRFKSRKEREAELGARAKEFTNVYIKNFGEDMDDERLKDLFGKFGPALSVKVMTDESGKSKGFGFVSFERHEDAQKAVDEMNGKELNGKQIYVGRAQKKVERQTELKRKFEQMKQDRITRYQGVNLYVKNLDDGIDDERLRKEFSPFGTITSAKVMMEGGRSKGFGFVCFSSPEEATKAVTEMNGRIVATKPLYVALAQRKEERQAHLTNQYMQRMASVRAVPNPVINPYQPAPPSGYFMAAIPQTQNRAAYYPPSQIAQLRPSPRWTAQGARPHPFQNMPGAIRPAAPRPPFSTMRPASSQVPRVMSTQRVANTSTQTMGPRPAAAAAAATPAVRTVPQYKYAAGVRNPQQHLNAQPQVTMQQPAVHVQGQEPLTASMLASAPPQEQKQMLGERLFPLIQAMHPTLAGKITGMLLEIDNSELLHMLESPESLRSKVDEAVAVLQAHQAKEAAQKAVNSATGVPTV
HIV Env fusion: HIV envelope-mediated fusion inhibition. 1.1% of 360,000 active. AID 651610. inhibition, % at 12.3 µM. HeLa-JRFL Env/CEM21 cell fusion, luciferase;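 active = mean replicate inhibition score of at least 50 and every replicate individually at or above 50; inconclusive = only one of the two criteria met; inactive = mean below 50 and not all replicates reaching 50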;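 also: 0% = plate neutral controls and 100% = maraviroc near 300 nM; one replicate is shown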
MT1-MMP act inh: inhibitors of human MT1-MMP activation | AID 651647 | 0.061% of 360,000 active | P50281 | HT1080 RFP-PRO-GFP cells, GFP/RFP ratio fluorescence, overnight; percent of plate control window, DMSO zero | GFP/RFP ratio change, % at 20 µM;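 active = GFP/RFP ratio change of at least 30% with cell ATP level not reduced by more than half and red fluorescence within 50% of control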; also: strong numbers were not always called active
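Assay system: HT1080 RFP-PRO-GFP cells. Benchmarks: DMSO vehicle wells and RFP-L50D-GFP reporter cell wells. Times: overnight cell settling, then overnight compound exposure, 37 °C, 5% CO2. Compound: 20 µM single dose, 1% DMSO. Read-out basis: GFP/RFP fluorescence ratio.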
eIF4H FP inh: inhibitors of RNA binding by human eIF4H | Q15056 | eIF4H fluorescence polarization binding assay | inhibition, % at 35 µM | 0.94% of 290,000 active;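 active = 50% or more with normal probe brightness, or confirmed in later tests; inconclusive = above 50% with abnormal brightness, or retests that disagree; inactive = below 50% or failed in later tests; about a fifth of its hits are not listed in these tables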;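 also: calls also rest on retests at 20 µM and on dose response follow-up; 0% = protein and probe with vehicle and 100% = probe without protein; strong numbers were not always called active; many hits fall short of the cut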
CSC inhib: blocks cancer stem cells; cancer stem cell-like cells viability, luminescence; AID 2717; 1.1% of 300,000 active; inhibition, % at 7.5 µM;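 active = mean at 75% or more and at least half the replicates too; inconclusive = mean and replicates disagree; tested in HMLE shEcad cells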;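 also: 0% = median of negative and 100% = median of positive control wells; the first replicate is given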
Rce1 inh: inhibitors of yeast Ras-converting enzyme; Q03530; yeast membranes, quenched prenylated peptide cleavage fluorescence; 0.27% of 290,000 active; calls only;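 active = fall in fluorescence gain of 50% or more versus controls, with final raw signal at or below 3038400; inconclusive = same 50% fall but final raw signal above 3038400; inactive = fall in fluorescence gain under 50%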;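 also: plate controls were neutral control wells for no effect and wells lacking membranes for full effect; tested at 10 µM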
Yeast UUG start: modulators of start codon recognition fidelity in yeast | activity score, % at 18.7 µM | S. cerevisiae UUG-firefly luciferase reporter, luminescence/redox ratio | 0.13% of 350,000 active;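 active = replicate mean at a twofold rise or more, about +100% in these data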;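 also: firefly luciferase made from a UUG start codon reports start codon fidelity; reporter light over untreated wells divided by growth signal over untreated wells; some hits fall short of that in this replicate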
eIF4H FP inh retest: also measured in eIF4H FP inh; calls as there; inhibition, %; compound at 20 µM; confirmation average;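 mean of two retest wells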
PABP FP inh retest: second read-out of PABP FP inh, no call of its own (marks repeat the call); inhibition, %; compound at 20 µM; confirmation repeats;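 mean of two retest wells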
MT1-MMP act inh RFP: further read-out of MT1-MMP act inh, marked with its call; RFP signal change, %; measured here: RFP expression control read;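 0 = vehicle wells; hits needed this value within 50% of zero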
The depositor's hits bear a star; i = inactive; ? = inconclusive; nt = not tested or not shown. The list is partial. The share of hits here may be higher or lower than overall.

SMILES | PABP FP inh | HIV Env fusion | MT1-MMP act inh | MT1-MMP act inh RFP | eIF4H FP inh | CSC inhib | Rce1 inh | Yeast UUG start | others
O=C(CSc1nnc2ccccn12)Nc1ccc2c(c1)OCCO2 | -4 | -23 | 3 | 2 | 1 | -4 | i | nt
Nc1nn2cc(-c3ccccc3)nc2c2ccccc12 | -7 | -277 | 5 | -2 | 4 | 15 | ? | nt
N#C/C(=C\c1ccc([N+](=O)[O-])cc1)C(=O)Nc1ccccc1O | 9 | -13 | 2 | 2 | -8 | -38 | i | nt
CCCc1cc(=O)[nH]c(SCCc2ccccc2)n1 | 8 | 32 | 0 | 5 | -7 | 4 | i | 12
O=C(CC1CCCC1)NNC(=O)c1ccc(F)cc1 | nt | nt | 1 | 1 | nt | -9 | i | -10
Cc1sc2nc(COC(=O)c3cccc(OC(F)F)c3)[nH]c(=O)c2c1C | -9 | -1 | 8 | 4 | -14 | 6 | i | -3
O=C(O)COc1ccc2c(c1)O/C(=C\c1ccco1)C2=O | 54* | -6 | 0 | 4 | 77* | -17 | i | 1
CC1CCCCN1CCCNC(=O)c1c(O)nc2ccccn2c1=O (stereo unspecified) | 12 | -1 | 1 | 4 | 23 | -13 | i | -17
Cc1ccc(Cl)cc1NS(=O)(=O)c1cn(C)nc1C | -5 | -30 | -3 | -1 | -6 | nt | i | -6
CCOc1ccc(N2C(=O)CC(/C=C3/N(C)c4ccccc4C3(C)C)C2=O)cc1 (stereo unspecified) | 10 | nt | -7 | 0 | -6 | 17 | i | nt

Brought forward from above: 2 entries, followed by the next part.
SMILES | PABP FP inh | HIV Env fusion | MT1-MMP act inh | MT1-MMP act inh RFP | eIF4H FP inh | CSC inhib | Rce1 inh | Yeast UUG start | others
Cc1ccc(Cl)cc1NS(=O)(=O)c1cn(C)nc1C | -5 | -30 | -3 | -1 | -6 | nt | i | -6
CCOc1ccc(N2C(=O)CC(/C=C3/N(C)c4ccccc4C3(C)C)C2=O)cc1 (stereo unspecified) | 10 | nt | -7 | 0 | -6 | 17 | i | nt
COc1ccc(CCC(=O)NNC(=O)Nc2ccc(C(C)=O)cc2)cc1 | 0 | 0 | 3 | 4 | 2 | 1 | i | -4
CC(C)(O)C#Cc1cccc(-c2nc(C(=O)NCCCN3CCOCC3)cc3c2[C@H](CCO)N(S(=O)C(C)(C)C)C3)c1 (stereo partly specified) | nt | -5 | 2 | 5 | nt | nt | nt | -2
CC(C)C1Nc2c(O)cc(Cl)c([N+](=O)[O-])c2C2C=CCC21 (stereo unspecified) | 15 | 23 | 13 | -11 | 43 | nt | i | -19
CCCC(C(=O)Nc1ccc(C)c(S(=O)(=O)N2CCOCC2)c1)c1ccccc1 (stereo unspecified) | nt | nt | 2 | 0 | nt | -10 | i | 9
CC(C)C[C@H](NC(=O)N1CC(=O)Nc2ccccc21)C(=O)N1CCC(C(=O)O)CC1 | 7 | -4 | -1 | 2 | 4 | -6 | i | -19
O=C(O)c1ccccc1-c1ccccc1C(=O)NCCCO | 8 | -19 | -6 | 0 | -8 | -4 | i | nt
O=C(CCC(=O)c1cccs1)NNC(=O)c1cc(Cl)ccc1Cl | nt | 2 | -2 | 0 | nt | -21 | nt | 2
Cc1cn(C)c(=O)n(C)c1=O | -6 | nt | 3 | 4 | -11 | 2 | i | -14
Cn1c(-c2ccco2)n[nH]c1=S | -9 | 14 | 3 | 6 | -4 | 3 | i | nt
COC(=O)[C@@H]1CC[C@H](C)[C@@H](c2ccc(C)cc2)N1C(=O)c1ccc(/C=N/O[C@@H](C)c2cn([C@H](CO)Cc3ccccc3)nn2)cc1 | 5 | nt | nt | nt | -6 | 32 | i | nt
CCc1ccc(C2CC(c3ccccc3Cl)Nc3nc(N)nn32)cc1 (stereo unspecified) | -18 | 30 | 2 | -2 | -15 | -21 | i | -2
N#C/C(=C\c1ccc(-c2ccc([N+](=O)[O-])cc2)o1)C(=O)Nc1nc(-c2cccs2)cs1 | 2 | -11 | 23 | 22 | 9 | 13 | i | nt
COc1cccc(Nc2nc(-c3sc(NC(=O)CC(C)C)nc3C)cs2)c1 | -5 | 17 | -1 | -6 | -9 | -1 | i | -12
Cc1ccc(SCc2cc(=O)[nH]c(N3CCN(Cc4ccccc4)CC3)n2)cc1 | -3 | nt | -2 | -12 | 2 | -3 | i | 17
CCC1(CC)NC(=O)N(CC(=O)OCC(=O)c2ccccc2OC)C1=O | nt | -36 | 5 | 6 | nt | -9 | i | nt
CCCc1nnc(NC(=O)CCC(=O)NC2CC2)s1 | -8 | -4 | -1 | 0 | -11 | -10 | i | -13
CC(C)C[C@H](NC(=O)c1nc[nH]c1C(=O)N[C@@H](CC(C)C)C(=O)OCc1ccccc1)C(=O)OCc1ccccc1 | -13 | 71* | -1 | -5 | 12 | 26 | i | -10
Cc1ccc(Oc2ccc(NC(=O)c3ccco3)cc2)cc1 | -11 | -66 | 7 | -7 | 7 | -12 | nt | 8
CCOc1cc(N2CCOCC2)c(OCC)cc1NC(=O)CN1CCCC1 | -7 | nt | 0 | 5 | -6 | 4 | i | nt
CCC(Cc1ccccc1)NC(=O)CCc1ccccc1 (stereo unspecified) | -8 | -6 | -7 | -4 | -4 | -6 | i | 0
COc1ccc(C(=O)N/C(=C\c2ccc3c(c2)OCO3)C(=O)Nc2ccc(C(=O)O)cc2)cc1 | -10 | -4 | -1 | 1 | -8 | -6 | i | nt
Cc1c(CCO)c(=O)[nH]n1S(=O)(=O)c1ccccc1 | 12 | -128 | 5 | 4 | -2 | -9 | i | 6
CCOC(=O)c1c(NC(=S)Nc2ccccc2)sc(C)c1C | 8 | nt | 4 | 2 | 2 | 1 | i | -15
Cc1ccc(-c2csc(NC(=O)CSc3nc(C)cs3)n2)cc1 | 10 | 8 | 6 | -2 | 2 | 8 | i | -17
CC[C@H](C)NC(=O)c1ccc(Cn2c(=S)[nH]c3c([nH]c4ccc(OC)cc43)c2=O)cc1 | -16 | -3 | 5 | 3 | -12 | 5 | i | nt
O=C(CCCSc1nc2ccccc2s1)NCc1ccco1 | 7 | -1 | -7 | -7 | -1 | -4 | nt | -19
COc1cccc(OCC(=O)N2CCC3(CC2)CC(=O)c2ccccc2O3)c1 | nt | 5 | -6 | 0 | nt | -5 | i | -5
O=C(CCn1c(=O)[nH]c2ccsc2c1=O)N1CCN(Cc2ccc3c(c2)OCO3)CC1 | -1 | -49 | 1 | 4 | 6 | 2 | nt | -14
Cc1ccc(C(=O)C(C)OC(=O)C2=COCCO2)cc1C (stereo unspecified) | 2 | nt | -3 | -1 | 2 | -11 | i | -17
CC1(C(=O)Nc2ccc3c(c2)OCCO3)CCN1C(=O)C1(c2ccc(Cl)cc2)CCC1 (stereo unspecified) | nt | -2 | 1 | -2 | nt | nt | nt | 1
COc1ccc(C(=O)COC(=O)c2ccccc2O)c(OC)c1 | nt | -67 | 2 | 0 | nt | -1 | nt | -22
Cc1scc(C(=O)Nn2cnnc2)c1-c1ccccc1 | -16 | nt | 0 | 4 | -18 | -2 | i | 7
COc1cc(C2C(C(=O)c3ccc(C)o3)=C(O)C(=O)N2c2cc(C)on2)cc(Br)c1O (stereo unspecified) | 13 | nt | -57 | 5 | 4 | 11 | i | -7
Oc1ccc(CN2CCc3ccccc3C2)c2cccnc12 | 9 | 62* | -10 | -7 | 16 | 60 | i | -44
CC(O)(c1cccnc1)c1nc(-c2ccc3ccccc3c2)cs1 (stereo unspecified) | nt | 32 | -4 | -24 | nt | nt | nt | -25
Nc1ccccc1/C=C/c1ccccc1N | nt | -64 | -4 | -10 | nt | nt | nt | -20
O=C(NCc1ccccn1)c1cccc([N+](=O)[O-])c1 | -14 | nt | -5 | -3 | -5 | -12 | i | -3
Cn1nc(C(=O)NC2CCCCC2)c2ccccc2c1=O | -7 | -135 | -3 | -3 | 4 | -1 | i | -18
COc1ccc(/C=C/C(=O)N2CCN(c3ccccn3)CC2)c2ccccc12 | 5 | -1 | 2 | 0 | 4 | 0 | i | nt
COC(=O)c1c(NC(=O)CN2C(=O)C(=O)N(C(C)C)C2=O)sc(C)c1C | nt | -12 | 0 | 0 | nt | nt | nt | -16
CCOC(=O)N1CCc2c(sc(NC(C)=O)c2C(N)=O)C1 | nt | -8 | 0 | 8 | nt | -3 | i | 12
Cc1sc2ncnc(SCC(=O)N3CCCC3)c2c1C | 4 | nt | 0 | 5 | 8 | 0 | i | -12
Cc1ccc(NC(=O)CSc2ccccc2)cc1S(=O)(=O)N1CCOCC1 | nt | 11 | -1 | -3 | nt | nt | nt | -3
Cc1c(NC(=O)Nc2ccc(C(C)C)cc2)c(=O)n(-c2ccccc2)n1C | -14 | -73 | 1 | 0 | 3 | 11 | i | -20
CCc1cc2cc(C)cc(C)c2nc1SCC(=O)Nc1cc(C)on1 | -5 | 10 | 2 | 6 | -9 | -2 | i | nt
O=C(COC(=O)CNC(=O)c1ccccc1)Nc1ccccc1Cl | -3 | -6 | -1 | -3 | 2 | -4 | i | -5
C=CCn1c(SCC(=O)OCC)nc(C(F)(F)F)cc1=O | 12 | 5 | 1 | 3 | 6 | -1 | i | nt
Cn1cc(-c2nnnn2-c2ccccc2)c(=O)c2ccccc21 | 0 | -12 | 3 | 4 | -4 | -8 | i | -4
CC(=O)OC1[C@H](Oc2c(O)c(C)c3c4c2[C@@H](C)CC[C@@H]4[C@@H](C)C[C@@H]3C=C(C)C)OC[C@@H](O)[C@@H]1O (stereo partly specified) | nt | 22 | 3 | 4 | nt | nt | nt | -5
C=CCn1c(CNC(=O)c2ccco2)nnc1SCC(=O)c1ccccc1 | 8 | 10 | -3 | 1 | -1 | -8 | i | nt
Next section:
SMILES | PABP FP inh | HIV Env fusion | MT1-MMP act inh | MT1-MMP act inh RFP | eIF4H FP inh | CSC inhib | Rce1 inh | Yeast UUG start | others
Cc1ccc(-c2nc(=S)c3c(n2Cc2cccnc2)CC(C)(C)OC3)cc1 | -8 | -3 | 2 | 2 | -1 | -6 | i | -12
Cc1ccccc1NC(=O)Cn1nc(C(=O)O)c2ccccc2c1=O | -1 | 11 | -2 | 1 | 0 | 5 | i | -7
O=C(Nc1ccc2[nH]c3c(c2c1)CCCC3)c1ccco1 | 46 | nt | 2 | 4 | 52 | 4 | i | 0 | eIF4H FP inh retest=-8;PABP FP inh retest=2
OC(CC#CCN1CCCCC1)(c1ccccc1)c1ccccc1 | -3 | 5 | -3 | -5 | 4 | -6 | i | 6
CC(C(=O)NCCN1C(=O)S/C(=C\c2cccnc2)C1=O)N1C(=O)c2ccccc2C1=O (stereo unspecified) | -9 | 1 | 1 | 2 | -13 | -2 | i | nt
CSc1ccccc1C(=O)C1CCCN(Cc2c(C)n(C)n(-c3ccccc3)c2=O)C1 (stereo unspecified) | 13 | 17 | 3 | 1 | -1 | 0 | i | nt
COc1ccc(C(C(=O)NC(C)(C)C)N(Cc2ccco2)C(=O)CCC(=O)Nc2cc(C)on2)cc1 (stereo unspecified) | 4 | -102 | 4 | 2 | -1 | 9 | i | -2
O=C(NNC(=S)NCc1ccccc1)c1ccc(Br)cc1 | -1 | -2 | 3 | 5 | 11 | -10 | i | -20
Cc1ccccc1S(=O)(=O)Cc1ccc(C(=O)NC2CCCCCC2)o1 | 7 | 13 | nt | nt | 10 | -5 | i | nt
O=C(c1ccc(CNS(=O)(=O)c2ccccc2)cc1)N1CCN(c2ccccn2)CC1 | 5 | nt | -5 | -7 | -11 | 15 | nt | -9
Cn1c(C23CC4CC(CC(C4)C2)C3)n[nH]c1=S | 1 | -22 | 2 | 2 | -4 | -10 | i | nt

Compound activity deposited in PubChem by several laboratories.
